Source: PubChem BioAssay (National Center for Advancing Translational Sciences (NCATS))
Lassa entry: qHTS for Inhibitors of binding or entry into cells for Lassa Virus | Lassa virus pseudotyped entry inhibition, cell-based qHTS; control for the full effect not named in the record; many of its hits are not listed in these tables | AID 720533, 2013 | actives 4.1% (n = 18,000) | Potency, µM (series often up to 49.2 µM), for the others: top-dose activity change, negative = inhibition, usual class: inhibitors; active = well fitted inhibition curve with a large enough effect; inconclusive = small, poorly fitted or top-dose-only effect; inactive = no such curve, though single readings can be large or run the other way; tested in HEK293 cells; note: luciferase read-out
MARV entry inh: qHTS for Inhibitors of binding or entry into cells for Marburg Virus | actives 6.5% (n = 18,000) | Potency, µM (series often up to 49.2 µM), for inactives: at the highest dose activity change, negative = inhibition, hits mostly inhibitors | Marburg virus pseudotype entry/binding inhibition, cell-based; control for the full effect not named in the record; many of its hits are not listed in these tables; active means well fitted inhibition curve with a large enough effect; inconclusive means small, poorly fitted or top-dose-only effect; inactive means no such curve, though single readings can be large or run the other way; tested in HEK293 cells; note: luciferase read-out
* = called active by the depositor; ? = inconclusive; . = no result given; & = joins results of further samples; [ ] = dose if it differs, or a comment. % is set by controls: 0 for no effect and ±100 for the full control effect; potency is the fitted concentration of half-maximal effect. The list is partial; rates above refer to the full screens.

SMILES	Lassa entry	MARV entry inh
Cc1ccc(C(=O)NC2CCCCC2)cc1-c1ccc(C(=O)NCC2CC2)cc1	.	-1%
O=C1OCCN1C(=O)[C@H]1[C@H](c2ccc(F)cc2)C(c2ccc(F)cc2)=NN1c1ccc(Br)cc1	-23%	-32%
CC(C)[C@H]1COC(c2cc(Cl)cc(Cl)c2)=N1	0%	4%
CC1=C2C(=CO[C@H](C)[C@H]2C)C(=O)C(C(=O)O)=C1O	-13%	14%
Cc1nc(-c2ccc(OCC(C)C)c(C#N)c2)sc1C(=O)O	7.9µM*	?
C#Cc1cccc(Nc2ncnc3ccc(OCCCCNCCS(C)(=O)=O)cc23)c1	.	?
CCC1OC(=O)C(C)[C@@H](O[C@H]2C[C@@](C)(OC)C(O)C(C)O2)C(C)[C@@H](O[C@@H]2OC(C)CC(N(C)C)C2O)[C@@](C)(O)CC(C)C2NC(COCCOC)O[C@H](C2C)[C@@]1(C)O (stereo not given in full)	-7%	-16%
COCc1c(C(=O)N2CCN(C3CCCCC3)CC2)cnn1-c1ncc(C)c(-c2cccs2)n1	4%	-1%
Cc1occc(=O)c1O	-8%	2%
COc1ccc2c(=O)c(C)c(-c3ccccc3)oc2c1CN(C)C	?	?
COc1ccc2c(c1)C(=O)[C@H](OC(=O)NCCc1ccc(OC)c(OC)c1)[C@@H](c1ccc(OC)c(Br)c1)O2	-4%	19%
O=C1CCCC(C(C(=O)OCc2ccccc2)C(=O)OCc2ccccc2)C1 (stereo not given)	-21%	7%
COc1cc(/C=C/CN2CCOc3ccc(C(O)c4cccnc4)cc3C2)ccc1O (stereo not given)	1%	-16%
CC(C)C[C@H](NC(=O)[C@H]1O[C@@H]1C(=O)O)C(=O)NCCCCN=C(N)N	-3%	?
O=S1(=O)C[C@H](N2CCC(Cc3ccccc3)CC2)[C@@H](COCc2ccccc2)N1	.	-28%
CCCCNCC(O)c1ccc(O)cc1 (stereo not given)	-2%	6%

Entries listed so far that contain bromine, in the order listed:
SMILES	Lassa entry	MARV entry inh
O=C1OCCN1C(=O)[C@H]1[C@H](c2ccc(F)cc2)C(c2ccc(F)cc2)=NN1c1ccc(Br)cc1	-23%	-32%
COc1ccc2c(c1)C(=O)[C@H](OC(=O)NCCc1ccc(OC)c(OC)c1)[C@@H](c1ccc(OC)c(Br)c1)O2	-4%	19%

The listing continues.
SMILES	Lassa entry	MARV entry inh
O=P(O)(O)C(O)(Cc1cnc2ccccn12)P(=O)(O)O	1%	16%
COc1ccc(CN2CCN(C(C)=O)CC2)cc1OC1CCN(C(=O)c2ccc3[nH]c(C)c(C)c3c2)CC1	-2%	-21%
CC[C@H]1OC(=O)[C@H](C)[C@@H](O[C@H]2C[C@@](C)(OC)[C@@H](O)[C@H](C)O2)[C@H](C)[C@@H](O[C@@H]2O[C@H](C)C[C@H](N(C)C)[C@H]2O)[C@](C)(O)C[C@@H](C)[C@@H]2N[C@@H](COCCOC)O[C@@H]([C@H]2C)[C@]1(C)O	-1%	7.1µM*
CO[C@H]1[C@H](NC(=O)c2cccc(F)c2)c2ccccc2C12CCN(Cc1ccco1)CC2	-5%	-2%
OCCO[C@@H]1[C@@H](O)[C@H](O)[C@@H](CO)O[C@@H]1O	-16%	-1%
CC(=O)C1=C(O)C=C2Oc3c(C(C)=O)c(O)c(C)c(O)c3[C@]2(C)C1=O	?	11%
C[C@H](NC(c1cccc2nc(O)c(O)nc12)P(=O)(O)O)c1ccc(Br)cc1 (stereo not given in full)	1%	-13%
CN1C[C@@H]2C[C@H]1CN2c1cc2c(cc1F)c(=O)c(C(=O)O)cn2C1CC1	-1%	14%
O=S(=O)(c1cccc2c(Cl)cccc12)N1CCCNCC1	?	8.9µM*
CC(=O)O[C@H](CC(=O)O)C[N+](C)(C)C	3%	29%
Cc1noc(C)c1CC(=O)NCC1Cc2cc(-c3cccc(OC(F)(F)F)c3)ccc2O1 (stereo not given)	-27%	?
CN[C@]1(c2ccccc2Cl)CCCCC1=O	-21%	15%
CNc1ncnc2c1ncn2[C@H]1C[C@H](O)[C@@H](CO)O1	-4%	-2%
CCCCCCCCN=C(N)c1ccc(C(=O)OCC2CCCCC2)cc1	13µM*	2.8µM*
C=C1CC[C@H](O)C/C1=C/C=C1\CCC[C@]2(C)C([C@H](C)CC[C@@H](O)C(C)(C)O)CC[C@@H]12 (stereo not given in full)	4%	30%
CON=C1C[C@]2(C[C@@H]3C[C@@H](C/C=C(\C)C[C@@H](C)/C=C/C=C4\CO[C@@H]5[C@H](O)C(C)=C[C@@H](C(=O)O3)[C@]45O)O2)O[C@H](/C(C)=C/C(C)C)[C@H]1C	32µM*	28µM*
CC(=O)OC[C@H]1O[C@@H](ON=C(C)CCC(=O)OC[C@H]2O[C@H](C#Cc3ccccc3)C=C[C@H]2Oc2ccc(C)cc2)[C@H](OC(C)=O)[C@@H](OC(C)=O)[C@H]1OC(C)=O	-1%[8.59 µM]	9%[8.59 µM]
O=C(c1cccc(F)c1)N(Cc1cc2cc3c(cc2nc1N1CCOCC1)CCC3)CC1CCCO1 (stereo not given)	0%	?
CC(C)C[C@H]1COc2c(Cl)cccc2S(=O)(=O)N1Cc1cccc(Cl)c1	-18%	?
NCC[C@H](O)C(=O)N[C@@H]1C[C@H](N)[C@@H](O[C@H]2O[C@H](CN)CC[C@H]2N)[C@H](O)[C@H]1O[C@H]1O[C@H](CO)[C@@H](O)[C@H](N)[C@H]1O	0%	5%
CCOC(=O)C1=CC2(CC)CCCN3CCc4c(n1c1ccccc41)C32 (stereo not given)	?	-15%
C[C@@H]1[C@@H](c2ccccc2)c2cc3ccccc3nc2-c2nc3ccccc3cc2[C@H]1C(=O)N1CCCC1	52%[activator][8.59 µM]	25%[8.59 µM]
c1cncc(C2CCCCN2)c1 (stereo not given)	14%&12%	-19%&20%
COc1ccc2c3c([nH]c2c1)[C@@H]1C[C@@H]2[C@@H](C[C@H](O)[C@H](OC)[C@H]2C(=O)O)CN1CC3	-13%[17.8 µM]	-10%[17.8 µM]
CC(C)C(NS(C)(=O)=O)c1nnc2n1CCN(Cc1ccc(C#CC(C)(C)O)cc1)CC2 (stereo not given)	-13%	11%
CCOC(=O)CC(SP(=S)(OC)OC)C(=O)OCC (stereo not given)	7%[107 µM]	16%[107 µM]
O=C(NCC1Cc2cccc(-c3cnccn3)c2O1)C1COc2ccccc2O1 (stereo not given)	5%	5%
Oc1ccc(Cl)c2cccnc12	-1%&-3%	13%&25%
O=c1cc(-c2ccccc2O)oc2c(O)c(O)ccc12	0%	-11%
COc1cccc(-c2nc3cc4c(cc3cc2CN(C(=O)c2cccs2)C2CC2)CCC4)c1OC	13µM*	?
COc1cc(OC)c2c(=O)c(OC)c(-c3ccc(OC)c(OC)c3)oc2c1	-11%	1%
COc1ccc([C@H]2C[C@H](n3cc(-c4ccc(F)cc4)nn3)[C@@H](O)CN2Cc2cccs2)cc1	-24%	?
Nc1ncnc(Nc2ccc(Cl)cc2)n1	39%[activator]	20%
C/C(=C(\CCOP(=O)(O)O)SC(=O)c1ccccc1)N(C=O)Cc1cnc(C)nc1N	-3%[17.8 µM]	28%[17.8 µM]
Clc1ccccc1-c1nc(-c2ccncc2)no1	8%	1%
C=CCOC(=O)N[C@H](C(C(=O)OC)=C(C)NCc1ccccc1)c1cccc(F)c1	5%[8.59 µM]	?
CCCCC[C@@H](/C=C/C=C\CCCCCCCC(=O)O)OO	-3%&-16%	18%&13%
N=C(N)SCCN=C(N)N	-4%	7%
CCCCCC(=O)O[C@H](CC(=O)O)C[N+](C)(C)C	-1%	-2%
COc1c2c(nc3occc13)C(CC=C(C)C)(OC)C(=O)C=C2 (stereo not given)	6%	-25%
[S]=[Sb](=[S])[S][Sb](=[S])=[S]	0%	14%
CCOP(=S)(OCC)SCn1c(=O)oc2cc(Cl)ccc21	-11%	-17%
CC(=O)Nc1ccccc1-c1nc(CNC(=O)c2ccc(F)c(F)c2)c(C)o1	4%	8%
NCCc1cc(O)c(O)cc1O	-8%	4%
O=C(NCc1ccccc1)c1cccc(NC(=O)c2ccccc2)c1	?	-15%
COc1ccc(CNC2C[C@H]3CCCC(=O)N4CC[C@@H](C2)[C@@H]34)cc1 (stereo not given in full)	-2%	?
CCc1cc2c(nc1CC)CCN(CCC(C)=NOC[C@@H](O)COCc1ccco1)C2	3%[8.59 µM]	1%[8.59 µM]
O=P(O)(O)CCCl	4%	9%
c1ccc(-c2ccc(OCCN3CCCC3)cc2)cc1	?	?
Clc1ccccc1CNCC1CCC(CNCc2ccccc2Cl)CC1 (stereo not given)	20µM*	6.3µM*
CCOc1ccc(C(=O)c2ccc(O)c(O)c2O)cc1	-1%	41%[activator]
C[C@@H](CN(C)C[C@H]1C(=O)O[C@@H]2C[C@@]3(C)CCC[C@]4(CO4)C3CC21)[C@H](O)c1ccccc1 (stereo not given in full)	-19%	?
NCCNc1cccc2ccccc12	?	?
C=C(C)[C@H]1C2C(=O)O[C@H]1[C@H]1OC(=O)[C@@]34O[C@@H]3C[C@]2(O)[C@@]14C	4%&-6%	20%&-7%
Cc1ccc([C@H]2C[C@H](O)[C@@H](n3cc(-c4ccc(F)cc4)nn3)CN2C(=O)C2CCCCC2)cc1	?	?
COc1ccccc1-c1oc2ccccc2c(=O)c1O	-3%	-7%

Continuation.
SMILES	Lassa entry	MARV entry inh
C=CCc1ccccc1OC[C@H](O)CNC(C)C	-1%[17.8 µM]	?
Cc1ccc([C@H]2C[C@@H](O)[C@H](n3cc(COC(=O)c4ccccc4)nn3)CN2C(=O)c2cccs2)cc1	-11%	-6%
Nc1ccnc2c1ncn2[C@@H]1O[C@H](CO)[C@@H](O)[C@H]1O	6%	-19%
COc1ccccc1C1CN(Cc2cnn(C)c2C)Cc2ccccc2O1 (stereo not given)	-1%	?
N#Cc1cccc(CS(=O)(=O)c2ccccc2)c1	-1%	2%
C1=C(c2ccc3c(c2)CN(Cc2cccn2-c2ncccn2)CCO3)Cc2ccccc21	49%[activator]	87%[activator]
CC(C)=CCC/C(C)=C/CC/C(C)=C/CC/C(C)=C/CC1=C(C)C(=O)c2ccccc2C1=O	-22%	-30%&-3%
Cn1ccc2c(-c3ccc(C(F)(F)F)cc3)cc3c(c21)C1CCC3O1 (stereo not given)	?	?
C[C@H]1CC[C@H]2C(=O)O[C@H](CO)CN2[C@H]1c1ccc(Br)cc1	.	-20%[8.59 µM]
COc1c(O)cc2c(-c3ccccc3)cc(=O)oc2c1OC	-12%	4%
COC(=O)[C@@H](c1ccccc1Cl)N1CCc2sccc2C1	-3%	16%
COc1cc(CNc2nc(C)c(-c3ccn(CC4CCCN(C)C4)n3)s2)ccc1F (stereo not given)	22%	?
Cc1cc(O)c(C)c2sc(N)nc12	-6%	8%
NCCC[C@@H](CC(=O)N[C@@H]1CCCC[C@H]1C(=O)N[C@H](CC(=O)N[C@@H](CCC(=O)O)CC(=O)O)Cc1ccccc1)NC(=O)C[C@H](Cc1c[nH]c2ccccc12)NC(=O)[C@@H]1CNCC[C@H]1N	-4%	3%
O=C(NCC1Cc2cccc(-c3ccccn3)c2O1)c1cnn2cccnc12 (stereo not given)	-7%	1%
O=C(NC1CC1)c1cccc(NC(=O)C2CCCCC2)c1	70%[activator]	59%
CCCCC/C=C\C\C=C/C=C/C=C/[C@@H](SCC(NC(=O)CCC(N)C(=O)O)C(=O)NCC(=O)O)[C@@H](O)CCCC(=O)O (stereo not given in full)	-2%	3%
C=CCN1CCC2(C)c3cc(O)ccc3CC1[C@@H]2C (stereo not given in full)	2%	?
CC[N+]1(C)[C@@H]2CC[C@H]1CC(OC(=O)[C@H]1CC[C@@](C(=O)OC3C[C@H]4CC[C@@H](C3)[N+]4(C)CC)(c3ccccc3)c3ccccc31)C2 (stereo not given in full)	-2%[17.8 µM]	-7%[17.8 µM]
COc1ccc2c(c1)O[C@H](c1ccc3c(c1)OCO3)[C@@H](OC(=O)Nc1ccc(OC(F)F)cc1)C2=O	-8%	-2%
COc1ccccc1C1CN(Cc2cccc3nccnc23)Cc2ccccc2O1 (stereo not given)	-18%	3%
CC(C)CC1C(=O)N(Cc2cn(CCC3OCCCO3)nn2)CCS(=O)(=O)N1Cc1ccc(-c2ccc(Cl)nc2)cc1 (stereo not given)	3%	1%
Clc1ccc(-c2nc3sccn3c2/C=N/OCc2ccc(Cl)c(Cl)c2)cc1	13%&0%&6%	31%&-1%&7%[activator]
NCCC[C@@H](CC(=O)N[C@@H]1CCCC[C@H]1C(=O)N[C@H](CC(=O)N[C@@H](CCC(=O)O)CC(=O)O)Cc1c[nH]c2ccccc12)NC(=O)C[C@H](CO)NC(=O)[C@@H]1CCCC[C@H]1N	-11%	-3%
CC(C)=CCC/C(C)=C/CC/C(C)=C/CC/C=C(\C)CC/C=C(\C)CCC=C(C)C	-26%&-10%	-7%&2%
CCC[C@H]1CN(c2ccccc2)C(=O)[C@H]1CC(=O)Nc1ccc(Br)cc1	-15%	-44%
